# VACV E9 pol inh: vaccinia E9 polymerase processive synthesis inhibition | in vitro processive DNA synthesis, absorbance read-out; active compounds read low; some inactives read as strong as hits | normalized absorbance, % (test concentration not listed) | actives 0.94% (n = 46,000);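 active = replicate mean up to 90% and picked by the depositor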;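 note: 100% = median of the test wells of a plate; 100 nL library stock went into each well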
# The depositor's hits bear a star.
SMILES,VACV E9 pol inh
CC(C)(C)C(=O)CSc1nc2ccccc2c(=O)[nH]1,104
CNC(=O)c1oc2ccc3c(c2c1C)C(=O)CC1(CCCCC1)O3,94
Cc1ccccc1OCCn1cnc2ccccc21,98
Cn1c(=O)c(C(N)=S)cn(-c2ccccc2)c1=O,90
Cc1c(/C=N/O)c2ccccn2c1C(=O)c1ccc(F)cc1,102
Cc1ccc(CN2C(=O)CSc3ccc(C(=O)NCC4CCCO4)cc32)cc1 (stereo not given),106
NNC(=O)c1ccncc1,93
CCc1ccc2oc(-c3cc(N=Cc4ccccc4O)ccc3O)nc2c1,100
O=C(Nc1ccc2nc3c(=O)[nH]c(=O)[nH]c3nc2c1)C(F)(F)F,103
CCC(=O)NCc1nc2ccccc2n1Cc1ccc(Cl)cc1,102

# 4 neighbouring entries already listed, quoted:
SMILES,VACV E9 pol inh
NNC(=O)c1ccncc1,93
CCc1ccc2oc(-c3cc(N=Cc4ccccc4O)ccc3O)nc2c1,100
O=C(Nc1ccc2nc3c(=O)[nH]c(=O)[nH]c3nc2c1)C(F)(F)F,103
CCC(=O)NCc1nc2ccccc2n1Cc1ccc(Cl)cc1,102

# (continued)
SMILES,VACV E9 pol inh
COc1ccc(Nc2nc(C(=O)NCc3ccccc3)cs2)cc1,98
N#C/C(=C\c1[nH]c2ccccc2c1O)C(=N)N1CCOCC1,99
Cc1ccccc1Nc1nn2c(=O)c3ccc(C(=O)NCCC4=CCCCC4)cc3nc2s1,103
CN1CCN(C(=O)c2c(Cl)nc3sccn23)CC1,86
CC(C)Sc1n[nH]c(=O)n1-c1ccccc1,99
Cc1ccc(S(=O)(=O)Nc2ccc3oc(C)c(C(=O)NN)c3c2)cc1,100
O=C(NCc1ccccn1)c1ccc2nc(N3CCCCC3)sc2c1,87
O=c1oc2c(-c3ccc(F)cc3)cc(O)cc2s1,95
CCN(CC)C(=O)Cc1noc2ccccc12,103
CCOC(=O)c1ccc(NC2Nc3cc(C)nn3S2)cc1 (stereo not given),104
CSc1ccc(/C=C2\CC/C(=C\c3ccc(SC)cc3)C2=O)cc1,106
Cc1cc(NC(=O)CC2CCCCC2)nc2c1c(=O)oc1ccccc12,100
O=C(O)C1CC(c2ccc(F)cc2)=NO1 (stereo not given),100
CCOC(=O)c1cccc2c1-c1ccccc1C2=O,92
O=C1CSc2ccc(C(=O)NCCC3=CCCCC3)cc2N1,100
CN(C)C(=O)CSc1nnc(-c2ccccc2)n1-c1ccc(F)cc1,103
COc1ccc(S(=O)(=O)NCCN2CCNC2=O)cc1OC,98
COc1ccc(OC)c(CCN=C2NS(=O)(=O)C(c3ccc(C)cc3)=C2C)c1,103
O=C(Nc1c(-c2cccs2)nc2ncccn12)c1ccco1,98
O=C(/C=C/c1ccccc1)ON1C(=O)CCC1=O,100
O=C1C(=O)N(CO)C(c2ccccc2)/C1=C(\O)c1ccccc1 (stereo not given),100
CC1CC(C(F)(F)F)n2ncnc2N1C(=O)CSc1nc2ccccc2o1 (stereo not given),102
CCC(=O)Nc1cc(C(=O)N2CCC3(CC2)OCCO3)ccc1S(=O)(=O)c1ccc(C)cc1,110
CC(C)(CC(=O)N1CCN(c2ccccc2)CC1)Sc1ccc(Cl)cc1,102
Cc1ccccc1CC(=O)c1ccc(O)cc1O,94
CC1(C)CC2CC(C)(CN2c2nc(-c3ccco3)cc(C(F)(F)F)n2)C1 (stereo not given),98
CC(C)c1ccc2[nH]c3c(c2c1)CCCC3O (stereo not given),100
CCS(=O)(=O)N1CCC(C(=O)NC2CCCCC2C)CC1 (stereo not given),97
O=C(/C=C/c1ccccc1)NCCOc1ccccc1,100
CCc1cc2c(cc3c(=O)n(CC(=O)N4CC(C)CC(C)C4)nc(CC)n32)s1 (stereo not given),98

# As entered above:
# VACV E9 pol inh with `CC1(C)CC2CC(C)(CN2c2nc(-c3ccco3)cc(C(F)(F)F)n2)C1` (stereo not given) is entered as 98
# VACV E9 pol inh with `Cc1ccccc1CC(=O)c1ccc(O)cc1O` is entered as 94
# VACV E9 pol inh with `O=C1C(=O)N(CO)C(c2ccccc2)/C1=C(\O)c1ccccc1` (stereo not given) is entered as 100
# VACV E9 pol inh with `CCc1cc2c(cc3c(=O)n(CC(=O)N4CC(C)CC(C)C4)nc(CC)n32)s1` (stereo not given) is entered as 98
# VACV E9 pol inh with `CC(C)c1ccc2[nH]c3c(c2c1)CCCC3O` (stereo not given) is entered as 100
# VACV E9 pol inh with `O=C(/C=C/c1ccccc1)NCCOc1ccccc1` is entered as 100
# VACV E9 pol inh with `CCS(=O)(=O)N1CCC(C(=O)NC2CCCCC2C)CC1` (stereo not given) is entered as 97
# VACV E9 pol inh with `CC(C)(CC(=O)N1CCN(c2ccccc2)CC1)Sc1ccc(Cl)cc1` is entered as 102
# VACV E9 pol inh with `CC1CC(C(F)(F)F)n2ncnc2N1C(=O)CSc1nc2ccccc2o1` (stereo not given) is entered as 102
# VACV E9 pol inh with `CCC(=O)Nc1cc(C(=O)N2CCC3(CC2)OCCO3)ccc1S(=O)(=O)c1ccc(C)cc1` is entered as 110

# Continuation.
SMILES,VACV E9 pol inh
CC1CCCC(NC(=O)CSc2ccccc2Cl)C1C (stereo not given),103
CCOc1ccc(-c2c(C#N)c(N)nc(SCC#N)c2C#N)cc1,101
N#Cc1ccccc1OCC(=O)Nc1ccccc1,100
CC(NC(=O)COc1cc(=O)n(C)c2ccccc12)c1ccc2c(c1)OCCO2 (stereo not given),98
CCn1ncc(C2=NOC(C(=O)NCc3ccc(Cl)cc3)C2)c1C (stereo not given),102
Cc1cc(C)cc(Sc2ccc3nnc(-c4ccccc4)n3n2)c1,89
O=C(c1ccc(COc2cc(Cl)ccc2Cl)o1)N1CCSCC1,100
O=C1c2ccccc2S(=O)(=O)N1Cc1ccc(Cl)cc1Cl,100
Cc1ccccc1N1C(=O)C(Oc2ccc(Cl)cc2)C1CNc1ccccc1 (stereo not given),98
Cc1cccc(N(C)C(=O)c2coc(=O)c3ccccc23)c1,100
CC(O)CN1CN=C(SCc2ccc(Cl)cc2)NC1 (stereo not given),101
CS(=O)(=O)N1CCSC1c1ccccc1Cl (stereo not given),102
Cc1onc(-c2ccccc2Cl)c1C(=O)NCC12CC3CC(CC(C3)C1)C2,101
CC(C)C(=O)n1nc(-c2ccc(Cl)cc2)nc1NCc1ccccc1,107
O=C(Nc1nnc(C2CCCCC2)s1)C1c2ccccc2Oc2ccccc21,98
Cc1[nH]c2ccccc2c1C=NC1CCS(=O)(=O)C1 (stereo not given),106
COc1ccccc1Nc1cc(C(=O)NCCN2CCC(Cc3ccccc3)CC2)c2ccccc2n1,103
Clc1cccc(-c2nnc3c4ccccc4ncn23)c1,89
O=C(O)c1cc(O)[nH]c(=O)c1,88
CC/C=C\C/C=C\C/C=C\CCCCCCCCCC(=O)O,99

# Reprinted at random: eight records from the list
SMILES,VACV E9 pol inh
CS(=O)(=O)N1CCSC1c1ccccc1Cl (stereo not given),102
CC(O)CN1CN=C(SCc2ccc(Cl)cc2)NC1 (stereo not given),101
Clc1cccc(-c2nnc3c4ccccc4ncn23)c1,89
CC/C=C\C/C=C\C/C=C\CCCCCCCCCC(=O)O,99
O=C(O)c1cc(O)[nH]c(=O)c1,88
O=C(Nc1nnc(C2CCCCC2)s1)C1c2ccccc2Oc2ccccc21,98
Cc1onc(-c2ccccc2Cl)c1C(=O)NCC12CC3CC(CC(C3)C1)C2,101
Cc1[nH]c2ccccc2c1C=NC1CCS(=O)(=O)C1 (stereo not given),106

# (listing goes on)
SMILES,VACV E9 pol inh
CCN(CC)S(=O)(=O)c1ccc(Cl)c(C(=O)Oc2ccc(C)c(C)c2)c1,106
COc1ccccc1OCCOc1ccc(-c2nc3sc4c(c3c(=O)[nH]2)CCCC4)cc1,100
C=CCn1nnnc1SCC(=O)Nc1ccccc1,98
Cc1ccc(C(=O)N2CCc3ccccc32)cc1Br,96
Cc1cc(-n2c(=S)[nH]c3ccccc3c2=O)ccc1Br,103
Cc1ccc(NC(=O)C2CC(=O)N(Cc3ccc(F)cc3)C2)cc1 (stereo not given),113
COc1ccc(C(=O)Nc2ccccc2C2(C)CC2)cc1,102
COc1ccc(N2CS(=O)(=O)CC2=O)cc1,101
Cc1ccc(C)c(NC(=O)CS(=O)(=O)c2c[nH]c3ccccc23)c1,97
C1CCCN(c2nc(N3CCCCCC3)nc(N3CCCCCC3)n2)CC1,100
N#CCC(=O)Nc1ccccc1Oc1ccccc1,94
O=C(Nc1nonc1OCCOc1nonc1NC(=O)c1ccccc1)c1ccccc1,105
O=C(Nc1ccccc1-c1nc2ccccc2s1)c1ccccc1,100
CC(=O)N1CCCc2cc(S(=O)(=O)N3CCCC3)ccc21,97
COc1cccc(-n2c(C)cc3c2CC(C)(C)CC3=O)c1,86
CCc1ccc(N2C(=O)CC(Sc3ccccc3N)C2=O)cc1 (stereo not given),94
CC(C)(C)c1cc2cccnc2[nH]1,106
Oc1ccccc1-c1nc2ccccc2o1,94
Cc1ccc(C)c(NCc2ccccc2CO)c1,101
COc1ccc(-c2csc(N3CCCC3C(=O)OCc3ccccc3)n2)cc1 (stereo not given),98
CC(=O)Nc1sc2c(c1C(=O)O)CCc1ccccc1-2,113
O=C(NCc1ccc2c(c1)OCO2)C1(S(=O)(=O)c2ccccc2)CC1,98
N#CCCN(C1CCCCC1)S(=O)(=O)c1cccc2nsnc12,107
O=C(Oc1ccc(-c2ccccc2)cc1)c1ccco1,99
CCCN(CCC)C(=O)c1cc2c(=O)n(CC)c3ccccc3c2s1,93
O=C(Oc1c(Br)cc(Cl)c2cccnc12)N1CCOCC1,101
Clc1cccc(C=Nc2ccc(N3CCOCC3)cc2)c1Cl,100
N#C/C(=C\c1c(Oc2ccccc2)nc2ccccn2c1=O)S(=O)(=O)c1ccccc1,100
CCCNC(=O)Nc1ccc2c(c1)oc1ccccc12,100
CCOc1ccc(NC(=O)C23CC4CC(CC(C4)C2)C3)cc1,110
Cc1ccc(C(=O)C(CC(=O)Nc2ccc(F)c(F)c2)c2nc3ccccc3[nH]2)cc1 (stereo not given),98
O=c1[nH]c(SCc2ccccc2)nc2nc[nH]c12,98
CC(=O)Nc1ccc2c(c1)nc(CN1CCCC1)n2C,110
CC(C)SCc1nc2ccccc2[nH]1,100
O=c1oc2ccccc2cc1-c1cn2cc(Cc3cccc(C(F)(F)F)c3)sc2n1,99
C=C(C)c1c2c(c(Cl)c3ccccc13)C[N+](CC)(CC)C2,98
CCCN(CCC)C(=O)CCn1c(=O)oc2ccccc21,99
CCCSc1nnc2c3ccccc3n(CC)c2n1,92
CC1(C)CC(=O)c2c(SCCOC(=O)c3ccccc3Cl)sc(C#N)c2C1,96
CC(C)Cn1c(COc2ccccc2)nc2ccccc21,91
N#Cc1c2ccc(OCC(N)=O)cc2n2ccccc12,85
N#Cc1ccc(Cl)cc1N=Cc1cccs1,96
CC1=C(C#N)C(=O)N(CCc2ccccc2)C(=O)/C1=C\c1ccc(-c2ccccc2)o1,100
O=C(N/C(=C/c1cccs1)C(=O)N1CCCC1)c1ccccc1,98
Cc1c(C(=O)OCCN2CCOCC2)oc2ccccc12,100
Cc1cccnc1NC(=O)C(F)(F)F,119
NC(=O)c1ccccc1NC(=O)CCC(=O)O,102
CC1CCN(Cc2ccccc2CO)CC1,98
C=CCNc1oc(Cc2cccc3ccccc23)nc1C#N,92
O=c1c(-c2ccn[nH]2)cnc2sc3ccccc3n12,105
# Next compounds follow:
SMILES,VACV E9 pol inh
Nc1c(C(=O)c2ccccc2)sc2nc3c(cc12)C(=O)CCC3,97
COC(=O)c1sc(SC)c(C#N)c1-c1ccco1,92
CCc1ccc(NC(=O)Nc2nnc(N(CC)c3ccccc3)s2)cc1,101
CN(C)C(=O)CSc1nc2ccccc2o1,101
CC1CCCC(C)N1CC(O)COc1c(F)cc(Br)cc1F (stereo not given),109
CC1CN=C(NC(=O)c2ccccc2)S1 (stereo not given),101
C=CC1CN2CCC1CC2[C@H](O)c1cnc2ccccc2c1 (stereo not given in full),98
COC(=O)c1ccc(NC(C)=O)cc1,101
CN(C)S(=O)(=O)c1ccc(C(=O)Nc2sccc2C#N)cc1,100
Cc1ccc(C2C3=C(CC(C)(C)CC3=O)NC3=C2C(=O)c2ccccc23)cc1 (stereo not given),98
COc1ccc(OC)c(CCCCc2cc(OC)ccc2OC)c1,106
N#Cc1ccc(-c2csc(NC(=O)CCc3ccccc3)n2)cc1,101
CC(=O)N=c1sc2cc(S(C)(=O)=O)ccc2n1C,100
CCOc1ccc(C2Nc3ccccc3NC3=C2C(=O)CCC3)cc1 (stereo not given),100
CCc1ccc(NC(=O)C2CCN(C(=O)c3ccc(F)cc3)CC2)cc1,100
Cc1ccc(S(=O)(=O)N2CCCC2)cc1-c1nnc2c3ccccc3c(C)nn12,100
COC(=O)c1ccc(Cn2c(O)c(N=O)c3ccccc32)o1,100
Cc1nc(N2CCC(C)CC2)c2c(C)c(C(=O)N3CCOCC3)sc2n1,96
COC(=O)CSC1=NC(=O)/C(=C/c2ccc(OC)cc2)S1,100
CCOC(CCn1c(SCc2cc(=O)n3ccccc3n2)nc2ccccc2c1=O)OCC,102
O=C(NCc1ccccc1)c1ccccc1O,90
Nc1ccccc1C(=O)NCc1c(F)cccc1Cl,88
Cn1c(CC2Sc3ccccc3NC2=O)n[nH]c1=S (stereo not given),102
Cc1ccc(F)cc1NC(=O)N1CCCN(c2ccc(C(F)(F)F)cn2)CC1,91
CC(C)CCNC(=O)c1c[nH]c2ccc(S(=O)(=O)N3CCC4(CC3)OCCO4)cc2c1=O,98
CSc1ccc(/C=C/C(=O)O)cc1,97
O=C(NCc1nc(-c2ccccc2)no1)C12CC3CC(CC(C3)C1)C2,93
CCOC(=O)C1CCN(CC(O)C(F)(F)F)CC1 (stereo not given),100
O=C(Cn1nnc(-c2ccccc2F)n1)N1CCCCC1,101
O=c1[nH]c(CN2CCCC2)nc2scc(-c3ccc(Cl)cc3)c12,101
O=C(O)COc1ccc(OCc2ccccc2)cc1,110
COC(=O)c1cn(Cc2ccc(Cl)cc2)cc(F)c1=O,95
N#CCc1ccc(C(=O)c2ccco2)s1,106
COc1ccc(N2C(=O)C3CC=CC(C)C3C2=O)cc1 (stereo not given),96
CC(C)(C)c1ccc(C(=O)Oc2ccccc2CCC(=O)O)cc1,98
O=C(NCc1ccco1)c1ccc(-c2cccc(Cl)c2)o1,76
Cn1c(C(Cc2ccccc2)NC(=O)c2ccccc2)nc2ccccc21 (stereo not given),89

# A portion of the library; the hit share may differ from the screen's.
